H5N1 CPE: MDCK cell protection from H5N1 avian flu | inhibition, % at 50 µM | 96,000 compounds, 0.07% hits | cytopathic effect, luminescence, 72 h; hits give high values; no value below 0 was filed and about half of the inactive calls have no number; reference of the scale not given here; in the data active = inhibition above about 25%
Active calls of the source: *.

The opening 3 records, ahead of the listing:
CC(N=C(NS(=O)(=O)c1ccc(Cl)cc1)c1ccccc1)C(=O)O (stereo not drawn) was read as H5N1 CPE inactive.
CN(CC(CC(=O)Nc1nncs1)c1ccccc1)S(=O)(=O)c1ccccc1 (stereo not drawn) was read as H5N1 CPE 1.8.
`CCOc1ccc(N=CC2=C(O)CC(C)(C)CC2=O)cc1` gave H5N1 CPE 0.1.

This part in full (from the top)
CC(N=C(NS(=O)(=O)c1ccc(Cl)cc1)c1ccccc1)C(=O)O (stereo not drawn) was read as H5N1 CPE inactive.
CN(CC(CC(=O)Nc1nncs1)c1ccccc1)S(=O)(=O)c1ccccc1 (stereo not drawn) was read as H5N1 CPE 1.8.
`CCOc1ccc(N=CC2=C(O)CC(C)(C)CC2=O)cc1` gave H5N1 CPE 0.1.
CCn1c(SCC(=O)N/N=C/C(C)=C/c2ccco2)nnc1-c1ccccc1 was read as H5N1 CPE 1.4.
Screening CC(=O)/C(C(=N)N1CCN(C(c2ccccc2)c2ccccc2)CC1)=C(\C)O returned H5N1 CPE inactive.
COc1ccccc1NC(=O)C1CCCN(S(=O)(=O)c2cccc3nsnc23)C1 (stereo not drawn) was read as H5N1 CPE inactive.
`c1ccc(-c2nc(CSc3nnnn3-c3ccccc3)cs2)cc1` gave H5N1 CPE inactive.
O=C1CCN(S(=O)(=O)c2ccccc2)N1 was read as H5N1 CPE inactive.
`Cc1cc(C(C)(C)C)oc1C(=O)N(CC(=O)NC1CCCC1)Cc1ccc(F)cc1` gave H5N1 CPE inactive.
Cc1ccc(-c2c(C)sc(NC(=O)C3C4CCC(O4)C3C(=O)O)c2C(=O)OC(C)C)cc1 (stereo not drawn) was read as H5N1 CPE inactive.
`Clc1ccc(-n2c(SC/C=C/c3ccccc3)nnc2-c2cccnc2)cc1` gave H5N1 CPE 1.3.
Screening CCOc1ccc(NC(=S)N(Cc2ccc(Cl)cc2)Cc2ccco2)cc1 returned H5N1 CPE 0.7.
O=C(c1ccccc1)N1CCN(C2CCCCCC2)CC1 was read as H5N1 CPE inactive.
Screening CCOc1cc2[nH]c(=S)n(CCCC(=O)NCc3ccco3)c(=O)c2cc1OCC returned H5N1 CPE 0.2.
Screening COc1cc(OC)cc(C(=O)Nc2cc(NC(=O)c3ccco3)ccc2OC)c1 returned H5N1 CPE 6.0.
COC(=O)c1cc(-c2ccccc2)n[nH]1 was read as H5N1 CPE inactive.
For O=C(Nc1cccc(N2CCCC2)c1)c1cccs1 the results were H5N1 CPE 1.2.
`O=c1[nH]c(Cc2cccs2)nc2ccccc12` gave H5N1 CPE 1.9.
`CCN(CC)C1=CC(=O)OC12CCCCC2` gave H5N1 CPE 0.6.
For O=C(Nc1c2c(nn1-c1ccc(F)cc1)CS(=O)(=O)C2)C12CC3CC(CC(C3)C1)C2 the results were H5N1 CPE 1.6.
For Cc1c(C(=O)N2CCCC2)nnn1-c1nonc1N the results were H5N1 CPE 1.3.
`Cc1ccc(-c2nn3c(-c4ccco4)nnc3c3ccccc23)cc1S(=O)(=O)NCC1CCCO1` (stereo not drawn) gave H5N1 CPE 1.3.
Screening CC(=O)c1ccc(S(=O)(=O)N2CCCC2)cc1 returned H5N1 CPE inactive.
For CCS(=O)(=O)Nc1cccc(-c2nc3cccnc3s2)c1C the results were H5N1 CPE 28.6*.
CCCN1CCN(CCCNC(=O)CN2C(=O)COc3ccccc32)CC1 was read as H5N1 CPE 0.3.
`Cc1ccc(CNC(=O)c2ccc(Br)o2)cc1` gave H5N1 CPE inactive.
`CC(=O)Nc1ccc(S(=O)(=O)N2CCC(n3cnc4cc(F)ccc43)CC2)cc1` gave H5N1 CPE 0.4.
`Cn1c(-c2ccc(Br)o2)nc2cc(Br)ccc21` gave H5N1 CPE inactive.
Screening COc1ccc(C(C(O)C(=O)c2c[nH]c3ccccc23)N2CCN(c3ccccc3)CC2)cc1 (stereo not drawn) returned H5N1 CPE inactive.
For COc1cccc(N=Nc2c(=O)[nH]n3c(=O)cc(C)[nH]c23)c1 the results were H5N1 CPE 0.1.
For c1ccc(CSc2nnc([C@@H]3CCCN3)o2)cc1 the results were H5N1 CPE inactive.
For Cc1ccc2nc(-c3ccc(SCC(=O)O)nc3)[nH]c2c1 the results were H5N1 CPE 0.3.
For CC(C)CCNC(=O)C1C2C=CC3(CN(Cc4ccccc4Cl)C(=O)C13)O2 (stereo not drawn) the results were H5N1 CPE 0.8.
`COc1cccc(OC)c1C(=O)Nc1ccc(CN2CCOCC2)cc1` gave H5N1 CPE 0.7.
For CCC(C)[C@H](NC(=O)NC1CCCc2ccccc21)C(=O)O (stereo partly drawn) the results were H5N1 CPE inactive.
COc1cc(C(=O)OCC(=O)c2cc(C)n(C)c2C)cc(OC)c1OC was read as H5N1 CPE inactive.
`C=CCOc1ccc(C2c3c(oc4ccccc4c3=O)C(=O)N2CCCN2CCOCC2)cc1` (stereo not drawn) gave H5N1 CPE 0.5.
`O=C(c1cc(-c2ccc(Cl)cc2Cl)on1)N1CCN(C(=O)c2ccco2)CC1` gave H5N1 CPE inactive.
Screening COc1ccc(C)cc1NC(=O)CCN1CCCC1 returned H5N1 CPE 1.4.
Screening COc1ccccc1N1CCN(C(=O)CSc2nnc(NC(=O)C3CC3)s2)CC1 returned H5N1 CPE 1.4.

6 entries picked at random from those above:
For c1ccc(CSc2nnc([C@@H]3CCCN3)o2)cc1 the results were H5N1 CPE inactive.
For CC(C)CCNC(=O)C1C2C=CC3(CN(Cc4ccccc4Cl)C(=O)C13)O2 (stereo not drawn) the results were H5N1 CPE 0.8.
`C=CCOc1ccc(C2c3c(oc4ccccc4c3=O)C(=O)N2CCCN2CCOCC2)cc1` (stereo not drawn) gave H5N1 CPE 0.5.
For Cc1ccc2nc(-c3ccc(SCC(=O)O)nc3)[nH]c2c1 the results were H5N1 CPE 0.3.
Screening COc1ccccc1N1CCN(C(=O)CSc2nnc(NC(=O)C3CC3)s2)CC1 returned H5N1 CPE 1.4.
`O=C(c1cc(-c2ccc(Cl)cc2Cl)on1)N1CCN(C(=O)c2ccco2)CC1` gave H5N1 CPE inactive.

Following part
Screening O=C(O)C1CCN(C(=O)c2ccccc2Cl)CC1 returned H5N1 CPE 0.3.
Screening O=C(NCCOC(=O)c1ccc(Cl)c(S(=O)(=O)N2CCCCC2)c1)c1ccncc1 returned H5N1 CPE 0.9.
Screening CC(C)(C)c1cc(NC(=O)c2cc(F)c(F)c(F)c2F)no1 returned H5N1 CPE 0.4.
Cc1ccccc1NC(=O)c1ccc(-c2ccc(Cl)cc2Cl)o1 was read as H5N1 CPE inactive.
S=C(Nc1ccc(Cl)cc1)NC1CC2CCCC(C1)N2C1CCCC1 (stereo not drawn) was read as H5N1 CPE inactive.
O=C(Nc1ccccc1)C1CC(=O)n2ncnc2N1 (stereo not drawn) was read as H5N1 CPE inactive.
Screening O=C(Nc1sc2c(c1-c1nc3ccccc3[nH]1)CCCC2)C1CC1 returned H5N1 CPE inactive.
CCOC(=O)C1CCN(c2c(NCc3ccc(C(=O)NC4CCCC4)cc3)c(=O)c2=O)CC1 was read as H5N1 CPE 1.2.
Screening CCOC(=O)N1CCN(C(=O)C(c2ccccc2)c2ccccc2)CC1 returned H5N1 CPE inactive.
Screening Cc1onc(-c2c(F)cccc2Cl)c1C(=O)Nc1ccc(S(=O)(=O)Nc2ncccn2)cc1 returned H5N1 CPE 1.6.

The closing 2 records of the part before come first, to join the parts:
Screening CCOC(=O)N1CCN(C(=O)C(c2ccccc2)c2ccccc2)CC1 returned H5N1 CPE inactive.
Screening Cc1onc(-c2c(F)cccc2Cl)c1C(=O)Nc1ccc(S(=O)(=O)Nc2ncccn2)cc1 returned H5N1 CPE 1.6.
Screening Cc1nc2c(-c3ccc(F)cc3)c(C)nn2c(C)c1CCC(=O)N1CCN(c2ccccn2)CC1 returned H5N1 CPE 1.4.
CCOc1ccc(S(=O)(=O)NCCN2CCOCC2)c2ccccc12 was read as H5N1 CPE 0.3.
COc1ccc(-c2nc3n(n2)C(c2ccccc2)C2=C(CCCC2=O)N3)cc1OC (stereo not drawn) was read as H5N1 CPE inactive.
Screening Cc1ccccc1OCCCC(=O)Nc1ccc2c(c1)OCO2 returned H5N1 CPE inactive.
`O=c1oc(-c2ccccc2NS(=O)(=O)c2ccccc2)nc2ccccc12` gave H5N1 CPE inactive.
For COc1cccc(N2C(=O)C(O)=C(C(C)=O)C2c2ccc(OC)c(OC)c2)c1 (stereo not drawn) the results were H5N1 CPE 0.1.
CC(=O)n1cc(C(C[N+](=O)[O-])SCCN)c2ccccc21 (stereo not drawn) was read as H5N1 CPE inactive.
Screening CCN1CCN(CCNC(=O)C2CCN(Cc3nc(-c4ccc(Cl)cc4)oc3C)CC2)CC1 returned H5N1 CPE inactive.
Cc1ccc(C(=O)Nc2nnc(-c3ccncc3)s2)o1 was read as H5N1 CPE 3.0.
Screening O=C1NC(=O)[C@]2(Cc3ccccc3N3CCN(c4ccccc4)CC32)C(=O)N1c1ccccc1 (stereo partly drawn) returned H5N1 CPE 1.2.
`COc1ccc(C)cc1Nc1cc(C)nc2nc(C)nn12` gave H5N1 CPE 1.2.
N#Cc1cc2c(nc1SCC1COc3ccccc3O1)CCC2 (stereo not drawn) was read as H5N1 CPE 0.2.
Screening COc1ccc(CN(C(=S)Nc2ccccc2)C2CC(=O)N(c3ccc(Cl)cc3)C2=O)cc1 (stereo not drawn) returned H5N1 CPE inactive.
O=C1CN(c2ccc(Cl)cc2)C(=O)CN1NC(=S)Nc1ccc(Cl)cc1 was read as H5N1 CPE inactive.
`COc1ccc(C)cc1C(=O)CCC(=O)Nc1ccccc1N1CCOCC1` gave H5N1 CPE inactive.
For CC(=O)c1nc2ccccc2n1S(=O)(=O)c1ccc(C)cc1 the results were H5N1 CPE inactive.
`O=C(O)CSCNC(=O)C12CC3CC(CC(C3)C1)C2` gave H5N1 CPE 0.5.
For O=C(COc1ccccc1)Nc1cccc2c1CCCC2 the results were H5N1 CPE inactive.
For CC(NC(=O)OCc1ccccc1)C(=O)NCC1CCCO1 (stereo not drawn) the results were H5N1 CPE inactive.
Screening CCOc1ccc(-c2noc(=O)[nH]2)cc1 returned H5N1 CPE inactive.
Screening Brc1ccccc1-c1nnc2sc(Cc3ccccc3)nn12 returned H5N1 CPE inactive.
`COc1ccccc1CNC(=O)c1cn(C)c(=O)c2cc(OC)c(OC)cc12` gave H5N1 CPE 0.9.
For Nc1nc(SCc2nnc(SCC(=O)O)n2-c2ccccc2)nc2sc3c(c12)CCCC3 the results were H5N1 CPE inactive.
O=C(CSc1nnc2c3ccccc3c3ccccc3c2n1)Nc1ccccc1 was read as H5N1 CPE 3.8.
For CCOc1ccc(N(CC(=O)NCC2CCCO2)S(=O)(=O)c2ccc(Cl)cc2)cc1 (stereo not drawn) the results were H5N1 CPE 0.7.
`COc1cccc(C(=O)Nc2ccc3c(c2)C(=O)N(CCC(=O)O)C3=O)c1` gave H5N1 CPE inactive.
`Cn1nnnc1SCc1csc(Nc2ccccc2)n1` gave H5N1 CPE inactive.
Screening Cc1oc2nc(SCCCC(=O)NCCO)nc(N)c2c1C returned H5N1 CPE 1.9.
`CCc1nc(SCc2cccnc2)[nH]c(=O)c1C` gave H5N1 CPE 1.4.
Cn1cnnc1SCCC(=O)Nc1ccccc1 was read as H5N1 CPE 0.3.
For O=C(CSc1nnc(Cc2cccs2)n1Cc1ccco1)Nc1cc(Cl)cc(Cl)c1 the results were H5N1 CPE inactive.
For CCOC(=O)c1cc(C#N)c(N)nc1C the results were H5N1 CPE inactive.
Screening CCCn1nnc2ccccc2c1=O returned H5N1 CPE 0.2.
Screening Cc1c(C#N)c2ccccc2n1CC(=O)O returned H5N1 CPE 0.2.
For CCCn1c(N)[n+](CC(=O)c2ccco2)c2ccccc21 the results were H5N1 CPE 0.4.
For CC(=O)NC1C(=O)Nc2c1cccc2C(F)(F)F (stereo not drawn) the results were H5N1 CPE 0.2.
Screening CCOC(=O)C(Sc1n[nH]c(N)n1)c1ccccc1 (stereo not drawn) returned H5N1 CPE inactive.
For Cn1c(CNc2nc3ccccc3n2CCN2CCCCC2)nc2ccccc21 the results were H5N1 CPE inactive.
`Cn1nnc(NC(=O)CSc2ccc(Cl)cc2)n1` gave H5N1 CPE inactive.
CCNC(=O)NC(=O)C(C)Sc1nnc(COc2ccccc2Cl)o1 (stereo not drawn) was read as H5N1 CPE 2.8.

Not a retest: entries from further up.
For CCOC(=O)c1cc(C#N)c(N)nc1C the results were H5N1 CPE inactive.
Screening CCCn1nnc2ccccc2c1=O returned H5N1 CPE 0.2.
Screening Cc1c(C#N)c2ccccc2n1CC(=O)O returned H5N1 CPE 0.2.
For CCCn1c(N)[n+](CC(=O)c2ccco2)c2ccccc21 the results were H5N1 CPE 0.4.

(cont.)
For O=c1c2cc(N3CCOCC3)ccc2[nH]c(=S)n1CCCN1CCCCC1 the results were H5N1 CPE 0.5.
CCOc1ccccc1NS(=O)(=O)N(C)C was read as H5N1 CPE 0.3.
Screening CCN1C(=O)CC(C(=O)NC)SC1=Nc1cc(Cl)c(O)c(Cl)c1 (stereo not drawn) returned H5N1 CPE inactive.
Screening CCCOc1ccc(N2C(=O)C3ON(c4ccccc4)C(CCC)C3C2=O)cc1 (stereo not drawn) returned H5N1 CPE 0.8.
O=C(CNC(=O)c1ccccc1)OC(C(=O)Nc1cc(C(F)(F)F)ccc1Cl)c1ccccc1 (stereo not drawn) was read as H5N1 CPE inactive.
`Cc1ccc(Cn2c(-n3nc(C)cc3C)nc3c2c(=O)[nH]c(=O)n3C)cc1` gave H5N1 CPE 1.6.
Screening Cc1cc(Nc2ccc3ccccc3c2)n2ncnc2n1 returned H5N1 CPE 0.9.
O=C(Nc1cccc2c1C(=O)NC2=O)c1ccc(S(=O)(=O)N2CCCC2)cc1 was read as H5N1 CPE 1.0.
For C=CCn1c(SCC(=O)Nc2sccc2C#N)nc2sc(C)c(C)c2c1=O the results were H5N1 CPE 1.5.
`COc1ccc(-c2c(C#N)c(C)nc3c2C(=O)c2ccccc2-3)cc1` gave H5N1 CPE inactive.
CCCn1c(C)cc(=O)c2cc(NC(=O)c3ccccn3)ccc21 was read as H5N1 CPE inactive.
CCN(CC)c1nc(C#N)cc(-c2ccc(OC)cc2)n1 was read as H5N1 CPE 1.8.
For Cc1ccn2c(NC3CCCCC3)c(C)nc2c1 the results were H5N1 CPE inactive.
Screening CCC(C)NC(=O)c1ccccc1NC(=O)c1ccc(CSc2ccc(C)cc2)cc1 (stereo not drawn) returned H5N1 CPE inactive.

A portion of the library; count on the stated rates, not on these rows.
